Anaer choline gr: blocks anaerobic gram-negative growth on choline. Gram-negative bacterium anaerobic choline minimal medium, absorbance growth; hits give low values; many inactives read as strong as hits in the columns shown. calls only. 55,000 tested, 0.2% active;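 active = growth z-score on choline under -2 at 7 or 20 h with little or no fall on glycerol, limits in tiers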;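 also: stock transfer was 300 nL into about 50 µL; the organism is E. coli; final concentration not given here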
Anaer choline gr early: further read-out of Anaer choline gr, marked with its call; z-score; measured here: choline growth z-score, timepoint 1;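 score of optical density at 7 h as mean of two plates; lower means less growth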
Active calls of the source: *; i = inactive; + = active, no number; & = joins results of further samples. Not all compounds are listed; count on the stated rates, not on these rows.

SMILES	Anaer choline gr	Anaer choline gr early
CCCc1nc2ccccc2n1CC(O)COc1ccccc1Cl (stereo unspecified)	i	-0.12
COC(=O)c1c(NC(=O)c2nn(-c3ccc(F)cc3)ccc2=O)sc2c1CCC2	i	-0.08
CCCn1c(Cn2ccnc2C)nc2cc(NC(=O)C3CCCCC3)ccc21	i	-0.22
Cc1ccc2c(c1)C=C(C(=O)Nc1ncc(Cc3ccc(F)cc3)s1)C=CO2	i	-0.24
COc1ccc(C2CC(=O)C3=C(C2)Nc2onc(C)c2C3c2ccc(Br)cc2)cc1 (stereo unspecified)	i	0.58
CCOc1ccc(S(=O)(=O)N2CCOCC2)cc1-c1nc(C)no1	i	-0.31
CN1CCCN(c2nc(N)c3ccccc3n2)CC1	i	-0.07
Cc1cc(Sc2ccc(NC(=O)C(C)(C)C)cc2)n2ncnc2n1	i	-0.33
CCOc1ccccc1NC(=O)N1CCN(S(=O)(=O)c2ccc3c(c2)NC(=O)C(C)O3)CC1 (stereo unspecified)	i	0.17
Cc1ccc(NC(=O)Cn2c(=O)c3nnc(CCC(=O)NC(C)C)n3c3ccccc32)cc1	i	0.14
CCCCC(=O)N(Cc1ccc(-c2ccccc2-c2nn[nH]n2)cc1)C(C(=O)O)C(C)C (stereo unspecified)	i	0.47
CCCn1c(SCc2nc(-c3ccccc3)no2)nc2cc3c(cc2c1=O)OCO3	i	1.9
CCc1nc(-c2ccc(N3CCN(C(=O)c4cc5ccccc5[nH]4)CC3)cc2)no1	i	0.96
CCCCOc1ccc(NC(=O)c2cc(=O)c3cc(Br)ccc3o2)c2cccnc12	i	0.31
O=C(CCn1cnc2c([nH]c3ccc(F)cc32)c1=O)NCc1ccccc1F	i	0.2

3 neighbouring records out of the list so far, for reference:
SMILES	Anaer choline gr	Anaer choline gr early
CCCc1nc2ccccc2n1CC(O)COc1ccccc1Cl (stereo unspecified)	i	-0.12
COC(=O)c1c(NC(=O)c2nn(-c3ccc(F)cc3)ccc2=O)sc2c1CCC2	i	-0.08
CCCn1c(Cn2ccnc2C)nc2cc(NC(=O)C3CCCCC3)ccc21	i	-0.22

Entries shown so far that have bromine, in the order listed:
SMILES	Anaer choline gr	Anaer choline gr early
COc1ccc(C2CC(=O)C3=C(C2)Nc2onc(C)c2C3c2ccc(Br)cc2)cc1 (stereo unspecified)	i	0.58
CCCCOc1ccc(NC(=O)c2cc(=O)c3cc(Br)ccc3o2)c2cccnc12	i	0.31

Continued:
SMILES	Anaer choline gr	Anaer choline gr early
CN(C)S(=O)(=O)c1cccc(C(=O)CN2C(=O)COc3ccccc3C2=O)c1	i	-0.92
CCCc1ccc(S(=O)(=O)N2CCCC2c2nc(-c3ccc(F)cc3)no2)cc1 (stereo unspecified)	i	1.6
N#CC1=CN(c2cc(F)cc(F)c2)c2ccc(F)cc2S1(=O)=O	i	0.5
COc1ccc(N2C(=O)CCS2(=O)=O)cc1S(=O)(=O)Nc1ccccc1Br	i	-0.22
O=C(NCCc1ccccc1)C1CCN(c2nc3ccccc3o2)CC1	i	2.4
CN1CCSc2ccc(C(=O)Nc3ccc(Cl)cc3)cc21	i	1.3
Cc1c2c(nn1-c1ccc(SCc3ccccc3Cl)nn1)CCC2	i	-0.01
Nc1nc2c(c(=O)[nH]1)C(c1ccccc1F)CC(=O)N2 (stereo unspecified)	i	-0.48
Cc1cc(C)nc(NC(=O)CCn2nnc3cc(S(=O)(=O)N4CCCC4)ccc32)n1	i	0.93
CN(C)c1ccc(CN(CC2CCCO2)C(=O)c2ccc(Br)cc2)cc1 (stereo unspecified)	i	-0.99
CC1Cc2ccccc2N1C(=O)CN1C(=O)CN(C)C(=O)c2ccccc21 (stereo unspecified)	i	-0.66
CCCNC(=O)CN1c2ccccc2NC2=C(C(=O)CCC2)C1c1cccs1 (stereo unspecified)	i	-2
Cc1ccc(NC(=O)Cn2cnc3sc4c(c3c2=O)CCC4)cc1Cl	i	0.47
O=C(NCCCN1CCC(Cc2ccccc2)CC1)c1cc(-c2ccncc2)nc2ccccc12	i	-0.56
O=C(CCc1nc(CSc2nc3ccccc3s2)no1)Nc1nc(-c2ccccc2)cs1	i	-0.1
CCc1ccccc1NC(=O)NC1CCN(c2nc3ccccc3n(C)c2=O)CC1	i	-0.26
COC(=O)c1c(-c2ccc(Cl)cc2)noc1NC1CCCC1	i	0.33
Cc1cc2ncc(-c3ccccc3)nc2cc1C	i	0.78
O=C(c1cccnc1)N1CCCC1c1cccc(F)c1 (stereo unspecified)	i	-0.39
CC(C)Nc1ccc2nnc(C(C)C)n2n1	i	-0.25
CNC(=O)C1=C(N2CCCC2)c2ccccc2S1(=O)=O	i	0.63
O=C(c1ccoc1)N1CCCC(Nc2ncnc3c2CCC3)C1 (stereo unspecified)	i	1
FC(F)(F)c1cc(-c2ccncc2)nc2c(-c3cccc(Cl)c3)cnn12	i	0.36
Cc1ccccc1-c1noc(N2CCC(C(=O)Nc3nc4ccccc4s3)CC2)n1	i	2
Cc1ccc2oc(-c3nnc(C(=O)NCCC(C)C)o3)c(C)c2c1	i	0.6
O=C(Cn1c2c(c(=O)n3ncnc13)CCC2)N1CCCCC1	i	-0.56
Cc1cc(C2CCCN2S(=O)(=O)c2ccc(Cl)cc2)on1 (stereo unspecified)	i	0.15
Cc1ccc(N(C)S(=O)(=O)c2c(C)sc(C)c2-c2cc(C(F)(F)F)on2)cc1C	i	1.8
CC(C)CCn1c(=O)c2ccccc2n2c(=O)n(CC(=O)Nc3ccc4c(c3)OCCO4)nc12	i	0.61
O=C1CC(c2cc(F)cc(F)c2)Cc2nc(N3CCN(c4ccccc4)CC3)ncc21 (stereo unspecified)	i	1.3

Record cards, as listed above.
O=C(Cn1c2c(c(=O)n3ncnc13)CCC2)N1CCCCC1 in the list: Anaer choline gr = i; Anaer choline gr early = -0.56
CCc1ccccc1NC(=O)NC1CCN(c2nc3ccccc3n(C)c2=O)CC1 in the list: Anaer choline gr = i; Anaer choline gr early = -0.26

The list continues.
SMILES	Anaer choline gr	Anaer choline gr early
O=C1CN(C(=O)CN2c3ccc(Br)cc3-c3ccccc3S2(=O)=O)c2ccccc2N1	i	1.4
Cc1oc(C)c2c(=O)cc(-c3ccc4c(c3)OCO4)cc(OC(=O)c3ccc(F)cc3)c12	i	0.82
Cc1cc(C2CCCN2C(=O)c2c(Br)cnn2C)on1 (stereo unspecified)	i	-0.25
CC(Oc1ccc(=O)n(-c2ccc(F)cc2)n1)C(=O)Nc1cccc2c1OCCO2 (stereo unspecified)	i	0.32
Cc1ccc(-c2cc(C(F)(F)F)n3nc(C(=O)NC(C)(C)C)nc3n2)cc1	i	0.66
CCOc1ccc(-c2c(C)nn3c(C)c(C(=O)NCc4cccnc4)cnc23)cc1OCC	i	-0.77
COc1ccc(C(=O)N(CCCN(C)C)c2nc3ccc(F)cc3s2)cc1OC	i	1.2
COc1cccc(C2CC(=O)Nc3c2c(C)nn3-c2nc(C)cc(C)n2)c1 (stereo unspecified)	i	-1.8
COC(=O)C1=CN(C2CC2)c2cc(F)c(F)cc2S1(=O)=O	i	-0.91
O=S1(=O)C[C@H](NCc2ccc(F)cc2)[C@@H](S(=O)(=O)c2ccc(F)cc2)C1	i	0.54
CCOC(=O)c1nc(Cl)c2c(C)c(C)n(-c3cccc(Cl)c3)c2n1	i	-0.46
Cc1nc2c(-c3ccccc3)c(C)nn2c(C)c1CC(=O)N1CCC(C)CC1	i	0.42
COc1ccc(C(Nc2nc(C)cc(C)n2)c2cc(C)sc2NC(=O)c2ccccc2)cc1 (stereo unspecified)	i	0.24
Cc1cccc(-c2noc(-c3ccc[nH]c3=O)n2)c1	i	-0.33
CCOc1ccccc1NC(=O)N1CCC(N2CCN(Cc3ccc(F)cc3)C2=O)CC1	i	-0.23
COc1ccc(OC)c(NC(=O)C2=Cc3cc(C)ccc3OC=C2)c1	i	0.87
Clc1ccc(-c2noc(CCc3nc4ccccc4[nH]3)n2)cc1	i	-1.9
Cc1ccc(CNC(=O)c2nnc(-c3oc4ccc(C)cc4c3C)o2)cc1	i	0.22
CCCCCCCCCCOCCC(=O)O	i	0.3
O=C(C1CC1)N1Cc2c(sc3c2CCCC3)-n2cccc2C1c1ccccc1 (stereo unspecified)	i	0.37
CCOC(=O)Cn1cc(CN2CCCC2c2cc(C(C)C)on2)c2ccccc21 (stereo unspecified)	i	0.25
CCCS(=O)(=O)c1nc2ccc(NS(=O)(=O)c3ccc(F)cc3Cl)cc2s1	i	-0.53
CCOC(=O)Cn1nc(C)c2nn(-c3ccccc3)c(-n3cccc3)c2c1=O	i	-1.2
CCCCCn1c(=O)c2sccc2n2c(CCC(=O)NC3CCCCC3)nnc12	i	-0.31
CNC(=O)C1CCN(c2nc3ncn(CC(=O)NCC4CCCO4)c(=O)c3s2)CC1 (stereo unspecified)	i	-1.1
Cc1c(-c2noc(C(=O)NCCc3ccc(S(N)(=O)=O)cc3)n2)oc2ccccc12	i	0.16
Cc1cc(N2CCCCC2)nc(N2CCN(C(=O)CC3CCCC3)CC2)n1	i	-0.52
Cc1ccc(-c2noc(N3CCC(C(=O)NCc4ccccc4)CC3)n2)cc1	i	-0.79
CN1C(=O)Cc2cc(S(=O)(=O)N(C)CCc3noc(-c4ccccc4)n3)ccc21	i	-1.3
CCC(=O)Nc1ccc(-c2cc(C(=O)NCc3ccccn3)c3ccccc3n2)cc1	i	-0.71
O=C(O)CC1C(=O)NCCN1C/C=C/c1ccccc1 (stereo unspecified)	i	0.21
COc1cccc(CNC(=O)CSC2=Nc3ccccc3N=C(c3ccccn3)C2)c1	i	-0.19
Cc1ccc(C(=O)NCc2ccc(S(=O)(=O)N3CCC(C)CC3)s2)s1	i	1.6
COCCCNC(=O)CN1CCN(c2ccc(C(=O)O)cc2NC(=O)c2ccccc2Cl)CC1	i	0.04
O=C(Nc1ccc2nc(N3CCC(N4CCCCC4)CC3)cc(C(=O)O)c2c1)c1ccccc1F	i	-0.02
CCOC(=O)C1CCN(C(=O)c2cc(-c3cccnc3)on2)CC1	i	-0.37
COc1cccc(NC(=O)Cn2c(=O)c(CCC(=O)NC3CCCC3)nc3ccccc32)c1	i	-0.56
COc1ccc(NS(=O)(=O)c2cc(-c3ccno3)oc2C)c(OC)c1	i	-0.18
CCc1nccn1Cc1nc(CCOC)no1	i	0.66
NC(=O)Cn1cnc2c(sc3ncccc32)c1=O	i	-0.28
CC(=O)Nc1ccc(N(C)CCCc2c(C)nn(C)c2C)c(C(=O)O)c1	i	0.43
COCCNC(=O)CSc1nc(-c2ccccc2)no1	i	-0.81
O=C(c1ccccc1)N1CC(OCc2cccc(F)c2)C1	i	-1.2
Brc1ccc(COc2cccc3ccc(N4CCCC4)nc23)cc1	i	0.82
OC(CN1CCN(c2ccc(Cl)cc2)CC1)Cn1c2ccccc2c2ccccc21 (stereo unspecified)	i	0.91
O=C(c1ccc(F)cc1)N1CCC(c2nc(-c3ccc(S(=O)(=O)N4CCCC4)cc3)no2)CC1	i	-0.54
O=S(=O)(c1ccc(-c2nnc(C3CCCC3)o2)o1)N1CCCCC1	i	1.7
Cc1ccc(C2CC(=O)N(c3ccc(C(C)C)cc3)C(=O)C2)cc1	i	0.25
COc1ccc(NC(=O)c2sc3ncnc(N4CCN(C)CC4)c3c2C)cc1Cl	i	1.6
Fc1ccc(-c2nnc(-c3nc(NC4CCCCC4)c4ccccc4n3)o2)cc1	i	0.13
Cc1ccc(S(=O)(=O)NCl)cc1	i	0.26
CCCn1nnc2cc(S(=O)(=O)N3CCCC(C(=O)NCc4cccc(OC)c4)C3)ccc21 (stereo unspecified)	i	0.44
Cc1ccc(S(=O)(=O)Nc2ccccc2-c2ccc3ccccc3n2)cc1	i	1.6
CNC(=O)c1ccc(Cn2c(=O)c3cc(OC)c(OC)cc3n(C)c2=O)cc1	i	-0.09
Cc1ccc(CC(=O)N2CCC3(CC2)Nc2ccc(C)c(C)c2-n2cccc23)cc1	i	0.03
O=C(c1cc(-c2ccccc2)no1)N1CCCC1c1cccc(F)c1 (stereo unspecified)	i	-0.21
COc1cc(OC)c(NC(=O)c2ccc3nncn3c2)cc1Cl	i	-1.5
C=CCOc1ccc(C(=O)NCC2COc3ccccc3O2)cc1 (stereo unspecified)	i	0.66
O=C(Cn1c(=O)n(-c2ccc(CC(=O)NC3CC3)cc2)c(=O)c2ccccc21)Nc1ccccc1	i	0.76
COc1ccc(OC)c(-c2csc(-c3nnn(-c4ccc(Cl)cc4)c3N)n2)c1	i	0.54

Next section.
SMILES	Anaer choline gr	Anaer choline gr early
CCOc1ccc(NS(=O)(=O)c2cc(-c3cc(C(F)(F)F)on3)sc2C)cc1	i	-0.05
CC(C)C(=O)NCc1nc(-c2ccccc2Cl)no1	i	0.35
CS(=O)(=O)Nc1cccc(-c2cc3ccccc3[nH]2)c1	i	-1.3
Cc1nn(C)c2c(=O)n(C(C)C(=O)NCc3ccc(N4CCN(C)CC4)cc3)ccc12 (stereo unspecified)	i	-0.57
N#CC1=CN(c2cccc(F)c2)c2cc(F)ccc2S1(=O)=O	i	-0.44
CC(C)n1c(N2CCN(C(=O)C3CCCC3)CC2)cc(=O)n(C(C)C)c1=O	i	-0.63
O=C1Nc2ccc(I)cc2/C1=C/c1cc(Br)c(O)c(Br)c1	i	0.48&0.1&0.62
CC(C)(C)c1ccc(S(=O)(=O)/C=C/C#N)cc1	+	-2.8*
Cc1c(C(=O)NC2CCCc3ccccc32)oc2ccc(S(=O)(=O)N3CCC(C)CC3)cc12 (stereo unspecified)	i	-1.2
COCCNC(=O)Cn1c(C(=O)OC)cc2ccsc21	i	-0.6

Among those listed so far, 4 have a CF3 group:
SMILES	Anaer choline gr	Anaer choline gr early
FC(F)(F)c1cc(-c2ccncc2)nc2c(-c3cccc(Cl)c3)cnn12	i	0.36
Cc1ccc(N(C)S(=O)(=O)c2c(C)sc(C)c2-c2cc(C(F)(F)F)on2)cc1C	i	1.8
Cc1ccc(-c2cc(C(F)(F)F)n3nc(C(=O)NC(C)(C)C)nc3n2)cc1	i	0.66
CCOc1ccc(NS(=O)(=O)c2cc(-c3cc(C(F)(F)F)on3)sc2C)cc1	i	-0.05

Bioassay records deposited in PubChem BioAssay by ICCB-Longwood Screening Facility, Harvard Medical School.
